Screening data as filed in PubChem.
Mtb H37Rv: Mycobacterium tuberculosis H37Rv growth inhibition, cell based, confirmatory dose response (AID 1949); M. tuberculosis H37Rv growth inhibition; most inactive calls were filed without a number and no value below 0 was filed; inhibition, % at 10 µg/mL; hits with a dose series show IC50 in µg/mL; 100,000 compounds, 1.6% hits;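 active = confirmed in a dose series; inconclusive = about 50% or more but not retested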;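 also: bacteria grown 7 days with compound before Alamar blue readout; 0% = untreated bacteria and 100% = reference antibiotic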
Numbers without * were called inactive; i = inactive; ? = inconclusive.

mol	Mtb H37Rv
Cc1ccc(S(=O)(=O)N2CCC(C(=O)Nc3ccc(NC(=O)c4ccccc4)cc3)CC2)cc1	i
Cc1cn(S(=O)(=O)c2ccc(Cl)c(Cl)c2Cl)cn1	i
CC(=O)Nc1ccc(NC(=O)CSc2nnc(NC(=O)CCc3ccccc3)s2)cc1	0%
CCCOC(=O)Nc1ccccc1C(N)=O	i
Cn1c(NC2CCCCC2)cc(=O)n(C)c1=O	0%
COC(=O)c1cc(OC)c(OC)cc1NC(=O)CSc1nc2ccccc2o1	i
CC1CCCC(N2CCN(C(=O)c3cccc4ccccc34)CC2)C1 (stereo not drawn)	0%
CCN(CC)C(=O)COc1ccc2c(C)c(CC(=O)OC)c(=O)oc2c1	i
O=c1[nH]c2ccc(Cl)cc2c(-c2ccccc2)c1CN1CCCCC1	11%
CCc1cccc(C)c1NC(=O)C1CCCN(S(=O)(=O)c2ccc(OC)c(Cl)c2)C1 (stereo not drawn)	i
Cc1cccc(-c2nnc(SCC(=O)Nc3ccccc3C(C)C)o2)c1	i
Cc1cccc(C(=O)Nc2ccc(I)cc2)c1[N+](=O)[O-]	i

Reformatted: four of the compounds above.
Cn1c(NC2CCCCC2)cc(=O)n(C)c1=O
  Mtb H37Rv: 0%
COC(=O)c1cc(OC)c(OC)cc1NC(=O)CSc1nc2ccccc2o1
  Mtb H37Rv: i
CC1CCCC(N2CCN(C(=O)c3cccc4ccccc34)CC2)C1 (stereo not drawn)
  Mtb H37Rv: 0%
CCN(CC)C(=O)COc1ccc2c(C)c(CC(=O)OC)c(=O)oc2c1
  Mtb H37Rv: i

Later entries
mol	Mtb H37Rv
Cc1cc(=O)[nH]c(N2CCc3ccccc3C2)n1	i
CC(C)Cc1ccc(S(=O)(=O)Nc2ccc(F)c(Cl)c2)cc1	i
O=C(O)c1cccc(COc2ccccc2Br)c1	i
CCn1c(SCC(=O)Nc2cccc(Cl)c2C)nnc1C(CC(C)C)NC(=O)c1ccccc1Cl (stereo not drawn)	2%
O=C(Nc1ccccc1C(=O)Nc1nccs1)c1ccccc1	13%
CSc1ccc(/C=C(\C#N)c2nc3ccccc3c(=O)[nH]2)cc1	i
CCN(CC)CC#CC1(O)CCCCC1	i
CCN(CC)C(=O)c1sc(NC(=O)c2cccnc2)c(C(=O)OC(C)C)c1C	i
Cc1cc(=O)oc2cc(OC(=O)C(NC(=O)OCc3ccccc3)C(C)C)ccc12 (stereo not drawn)	i
Cc1ccc(OCC(=O)NCc2ccco2)cc1C	0%
Cc1cccc(OCc2nc(-c3ccccc3)no2)c1	1%
O=C(NCCSc1ccccc1)c1cccc(Cl)c1	i
Cc1nc(C)c(-c2csc(Nc3cccnc3)n2)s1	10%
Cc1ccc(CN(c2ccc(C(=O)N3CCC(C)CC3)cc2)S(C)(=O)=O)cc1	i
O=C(Nc1ccccc1)Nc1ccc(S(=O)(=O)Nc2ccc(F)cc2)cc1	?
COc1cc(NC(=S)NC(=O)C(c2ccccc2)c2ccccc2)ccc1NC(=O)C(C)C	i
Cc1ccc(CCc2nnc(SCC(=O)Nc3cccc(Cl)c3)n2-c2ccccc2)o1	i
O=S(=O)(Cc1ccccc1)NCc1ccccc1Cl	3%
Cc1ccc(C(=O)O/N=C(\N)c2ccncc2)c(C)c1	6%
CC1=NN(c2ccc(Cl)c(C(=O)O)c2)C(=O)C1c1cn[nH]c1-c1ccccc1 (stereo not drawn)	9%
C=CCc1cc(C2C3=C(CCCC3=O)NC3=C2C(=O)CCC3)cc(OC)c1OCc1ccc(F)cc1	1%
C#CCOc1ccc(C2C3=C(CCCC3=O)N(c3ccc(F)cc3)C3=C2C(=O)CCC3)cc1OC	i
CC(C)C(=O)Nc1ncc(Cc2ccc(Br)cc2)s1	41%
CC(C)(C)c1ccc(S(=O)(=O)NCCC(=O)O)cc1	i
COc1ccc(S(=O)(=O)N(Cc2ccccc2)c2ccccc2C(=O)Nc2cccc(N(C)S(C)(=O)=O)c2)cc1	i
O=c1c2ccccc2[nH]c(=S)n1-c1ccc(F)cc1	i
O=C1NC(=O)C2C1ON(c1ccc(Cl)cc1)C2c1ccccc1 (stereo not drawn)	i
O=C(COc1ccccc1)N1CCN(C(=O)c2ccccc2)CC1	i
COC(=O)c1ccc2c(=O)n(-c3ccccc3)c(=O)[nH]c2c1	i
O=C(O)c1cc(NS(=O)(=O)c2cccs2)ccc1O	i
Cc1ccc(N2NC(=O)/C(=C/c3ccc(OC(=O)c4cccs4)cc3)C2=O)cc1C	14%
COc1cc2c(c(OC)c1OC)C(c1ccccc1C(F)(F)F)CC(=O)N2 (stereo not drawn)	i
COCCN1C(=O)C(O)=C(C(=O)c2ccco2)C1c1ccc(I)cc1 (stereo not drawn)	i
CCCOc1cccc(OCCN2CCN(CC)CC2)c1	i
CCn1c(CNC(=O)c2cccs2)nnc1SCC(=O)NCCc1ccccc1	i
Cc1ccc(NS(=O)(=O)c2ccc(NC(=O)c3cccs3)cc2)c(C)c1	i

Four structures from above, sorted by molar mass, smallest number first.
mol	Mtb H37Rv
Cn1c(NC2CCCCC2)cc(=O)n(C)c1=O	0%
O=c1c2ccccc2[nH]c(=S)n1-c1ccc(F)cc1	i
Cc1cn(S(=O)(=O)c2ccc(Cl)c(Cl)c2Cl)cn1	i
CCn1c(SCC(=O)Nc2cccc(Cl)c2C)nnc1C(CC(C)C)NC(=O)c1ccccc1Cl (stereo not drawn)	2%

Next part.
mol	Mtb H37Rv
O=C(Nc1nc2ccc(Cl)cc2s1)c1sc2ccccc2c1Cl	i
COc1ccc(Cl)cc1NC(=S)N1CCN(S(C)(=O)=O)CC1	i
CCc1ccc2c(c1)C(OC(C)=O)C(C)(C)C(c1cccc(Br)c1)N2 (stereo not drawn)	9%
Cc1ccc(C2=NN=C(NC(=O)CSc3nncn3C)SC2)cc1	i
O=C(CCS(=O)(=O)Cc1ccccc1)Nc1ccc(Cl)cn1	i
COc1cccc(OC)c1C(=O)OCc1ccc(Cl)cc1	2%
CC1CCN(S(=O)(=O)c2cccc(-c3nnc(-c4ccc(Br)cc4)o3)c2)CC1	1%
COc1cc(CNc2ccc(Br)cc2)ccc1OCc1ccccc1	i
CCC(C)c1ccc(NC(=S)N2CCN(c3ccccn3)CC2)cc1 (stereo not drawn)	1%
COc1ccc(OCC(=O)c2c(O)c3ccccc3oc2=O)cc1	i
COc1ccc(-c2cccc(C(=O)NCCC(=O)O)c2)cc1	i
O=C(O)Cc1ccc(C(F)(F)F)cc1[N+](=O)[O-]	i
COc1ccccc1CN1CCC(C(=O)N2CCN(Cc3ccccc3)CC2)CC1	i
CCCC(=O)Nc1ccccc1NC(=O)c1cccc2ccccc12	i
Cc1cc(NC(=O)CSc2nc(-c3ccccc3)cs2)no1	1%
CCOc1ccccc1N1CCN(C(=O)c2ccoc2C)CC1	i
CCN(CCC(=O)Nc1ccc(F)c(F)c1)Cc1ccccc1	i
Cc1cccc(C)c1OS(=O)(=O)c1cc(Cl)ccc1Cl	1%
COc1ccc(NS(=O)(=O)c2ccc(NC(=O)c3ccc(Br)o3)cc2)cc1	i
COc1cc(OC)cc(C(=O)NC(=S)Nc2ccc(-c3nc4ncccc4o3)cc2C)c1	2%
COc1ccc(OC(C)C(=O)NC2CCCCCCC2)cc1 (stereo not drawn)	2%
O=C(CSc1nnc(C(O)c2ccccc2)n1-c1ccccc1)c1ccc(Cl)cc1 (stereo not drawn)	i
Cc1c(C(C)NC(=O)Nc2cc(Cl)cc(Cl)c2)cnn1C (stereo not drawn)	2%
CCOC(=O)c1ccc(NC(=O)c2ccc(NC(=O)C3COc4ccccc4O3)cc2)cc1 (stereo not drawn)	i
COc1ccccc1NC(=O)Cn1nc(-c2cccc([N+](=O)[O-])c2)c2ccccc2c1=O	i
CCOC(=O)C1=C(C)NC(=O)NC1c1ccc(-c2ccccc2F)o1 (stereo not drawn)	i
CC(C)Oc1ccc(C(=O)Nc2cccnc2)cc1	i
COc1cccc(-n2c(CCN3C(=O)c4ccccc4C3=O)nc3ccccc3c2=O)c1	i
CCc1cccc(CC)c1NC(=O)Cc1ccc(OC)cc1	0%
COc1ccc2c(Cl)c(-c3nnc(SCC(N)=O)n3C)sc2c1	i
COc1ccc(C2(C(=O)NCCc3ccccc3)CCCC2)cc1OC	i
CN(C)c1nc(Nn2cnnc2)nc(N(C)C)n1	3%
CC(C)(C)CC(=O)NCc1ccc(F)cc1	i
CCN1CCN(c2nc3c(C)cccn3c(=O)c2C=O)CC1	i
COc1ccc(OC)c(S(=O)(=O)Nc2ccc(NC(C)=O)cc2)c1	i
CCN(CC)C(=O)c1sc(NC(=S)Nc2cnccn2)c(C(=O)OC)c1C	5%
COc1ccccc1/C=C(/C#N)c1ccc(I)cc1	i
O=C(NCc1ccco1)C(Sc1ccccc1)c1ccccc1 (stereo not drawn)	i
CSc1nsc(SCC(=O)Nc2cc(C)on2)n1	i
CC(C)=CCOc1cc(C)cc2oc(=O)c3c(c12)CCC3	i
Cc1ccc(C)c(C(=O)Nc2ccc(Cl)c(C(F)(F)F)c2)c1	?
COc1ccc(CCNC(=O)c2ccc(C(F)(F)F)cc2)cc1	i
CC(C)(C)NCCCCOc1ccccc1	i
COc1cc(/C=C(\C#N)c2nc(-c3ccc(F)cc3)cs2)cc(OC)c1OC	1%
O=C(Oc1ccccc1Cl)c1cc2ccccc2oc1=O	i
O=C(c1ccccc1[N+](=O)[O-])N1CCN(c2ccc(Cl)cc2)CC1	i
O=C(NCCc1ccc(Cl)cc1)C12CC3CC(CC(C3)C1)C2	14µg/mL*
COc1ccc(C(O)(C(C)C)C(CN2CCOCC2)c2ccccc2)cc1 (stereo not drawn)	2%
Cc1ccc(N(CC(=O)Nc2cccc([N+](=O)[O-])c2)S(=O)(=O)c2ccc(F)cc2)cc1	1%
COC(=O)Nc1ccc(OCc2ccccc2)cc1	2%
Cc1cc(Cl)c(S(=O)(=O)NCC2CCCO2)cc1OCC(N)=O (stereo not drawn)	i
CCOc1ccc(S(=O)(=O)NC(C)C)cc1	i
COc1cc(CNCCO)cc(Cl)c1OCc1ccccc1	i
CC1(C)CC(NC(=O)c2cccs2)CC(C)(CNC(=O)c2cccs2)C1 (stereo not drawn)	i
CC1CCCCN1S(=O)(=O)c1ccc(C(N)=O)cc1 (stereo not drawn)	i
CCc1cccc(C)c1NC(=O)CN(CC)S(=O)(=O)c1cc(C)ccc1OC	i
Cc1oc2ccc(OCC(=O)O)cc2c1C(=O)O	15%
Cc1ccc(/C=C2\SC(=S)N(CCCC(=O)Nc3cccnc3)C2=O)cc1	i
COc1cc(NS(=O)(=O)c2cc(C)c(C)cc2C)c(OC)cc1Cl	7%
Clc1ccccc1-c1nc2c3cnn(Cc4ccccc4)c3ncn2n1	i

The list goes on:
mol	Mtb H37Rv
O=C(c1ccc(Cl)c(F)c1F)N1CCCCCC1	i
Cc1c(C(=O)O)oc2c1C(=O)CCC2	i
COC(=O)C1=CN(Cc2ccc(Cl)cc2)C=C(C(=O)OC)C1c1ccc(C)c([N+](=O)[O-])c1	15%
Cc1ccc(N2C(=O)CC(N3CCC(C(=O)O)CC3)C2=O)c(C)c1 (stereo not drawn)	i
Cc1nc2cc(NC(=O)N3CCN(c4ccccn4)CC3)ccc2o1	i
Cc1nnc(SCC(=O)Nc2cc(C(F)(F)F)ccc2N2CCOCC2)o1	i
CCOc1cc(C)c(Cl)cc1S(=O)(=O)NCc1ccc2c(c1)OCO2	1%
Cc1ccc(C2C(C#N)=C(N)SC(N)=C2C#N)c(C)c1	3%
O=c1c2cn[nH]c2nc(SCc2ccc3c(c2)OCCO3)n1-c1ccccc1	3%
O=C(CCSc1ccc(Cl)cc1)N1CCC(Cc2ccccc2)CC1	?
CCOc1ccc(OCCOCCNCCOC)cc1	i
O=C(Nc1ccccc1-c1ccccc1)c1cc2ccccc2oc1=O	35%
Cc1cc(Br)ccc1NC(=O)CSc1nnc(C(NC(=O)c2ccccc2)C(C)C)n1C (stereo not drawn)	i
COc1ccccc1OCC(=O)N1CC2(C)CC1CC(C)(C)C2 (stereo not drawn)	5%
CCN(CC)CCn1c(OC)cc(=O)[nH]c1=O	1%
CCOC(=O)c1ccc(NC(=O)CN(c2ccc(F)cc2)S(=O)(=O)c2ccc(C)cc2)cc1	i
COc1ccc(-n2ncc3c(NCc4ccccc4)ncnc32)cc1	i
Cc1cc(C)c(S(=O)(=O)N2CCC(C(=O)NCCC3=CCCCC3)CC2)c(C)c1	3%
Clc1cccc(-c2nnc3sc(C4COc5ccccc5O4)nn23)c1 (stereo not drawn)	2%
Cc1cc(OCC(=O)OC(C)(C)C)c2c(C)cc(=O)oc2c1	i
COc1ccc(C)cc1S(=O)(=O)N1CCN(c2ccccc2)CC1	i
CCOC(=O)c1sc(NC(=O)COc2ccc(C)cc2C(C)(C)C)nc1C	i
CCOc1ccc(C(C)C)cc1S(=O)(=O)n1ccnc1C	i
O=C(NCC(c1ccccc1)c1ccccc1)C(=O)Nc1cccc(Cl)c1Cl	0%
Cc1ccc2nsnc2c1S(=O)(=O)NC1CC1	i
Cc1cc(Br)c(NC(=O)CSc2nnc(N)s2)cc1C	i
Cc1ccc(CC(=O)NCCc2ccc(S(N)(=O)=O)cc2)cc1	i

Some of the compounds tested, so the mix of outcomes need not match the whole.
